Assay outcomes (PubChem)
CtBP-E1A inh – blocks the CtBP interaction with E1A; AlphaScreen GST-E1A/His-CtBP binding, 1536-well; hits give low values; control for the full effect not named in the record; activity change, % (test concentration not listed); 340,000 tested, 0.49% active; in the data active means activity change below about -65%; inconclusive means about -30% to -65%; inactive means above about -30%; further: on the % scale 0 is the no-effect control and ±100 the full control effect; compound concentration not given in the record
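In 5 uL wells, 23 nL compound meets equimolar GST-E1A and His-CtBP (5X stock 125 nM each) for 2 h, 37 °C. Beads (5X, 50 ug/mL) then 1 h, 37 °C, dark.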
D2 potentiator – human D2 receptor positive allosteric modulation; DiscoveRx D2 beta-arrestin cells, luminescence, 90 min; 100% = 57 uM dopamine signal; P14416; potentiation, % (no concentration beside the values); 360,000 tested, 0.23% active; active = potentiation of 50% or more; inconclusive = 30% to 50%; inactive = 30% or less;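 further: compound concentration not given in the record; tested on top of an EC20 dose of dopamine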
Target sequence (P14416 whole entry, looked up): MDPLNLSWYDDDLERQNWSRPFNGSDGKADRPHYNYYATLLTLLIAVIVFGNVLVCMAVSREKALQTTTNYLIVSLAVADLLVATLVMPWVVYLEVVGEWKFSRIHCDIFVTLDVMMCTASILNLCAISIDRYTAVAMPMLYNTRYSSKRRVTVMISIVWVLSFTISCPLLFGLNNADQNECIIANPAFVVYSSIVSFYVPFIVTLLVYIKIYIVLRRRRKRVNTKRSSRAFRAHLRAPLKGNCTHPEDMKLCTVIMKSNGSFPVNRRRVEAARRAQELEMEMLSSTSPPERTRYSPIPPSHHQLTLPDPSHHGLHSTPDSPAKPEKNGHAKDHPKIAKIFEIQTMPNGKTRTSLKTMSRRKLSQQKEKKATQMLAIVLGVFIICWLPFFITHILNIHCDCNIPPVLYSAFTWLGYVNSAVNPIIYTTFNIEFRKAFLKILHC
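PathHunter beta-arrestin assay in DiscoveRx D2 cells. Compounds were added with an EC20 of dopamine (50 nM final) for 90 min at 37 deg C. Luminescence was read 1 h after detection reagent, with 57 uM dopamine as the EC100 control.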
PINK1 expr mod – changes PINK1 expression | Potency, µM (doses to about 76.6 µM), inactives show at the top dose activation (PINK1 increase), usual class: activators | PINK1 immunofluorescence, high-content cytometry, 24 h | 410,000 tested, 0.2% active | AID 624263; active = well fitted activation curve with a large enough effect; inconclusive = small, poorly fitted or top-dose-only effect; inactive = flat fitted curve, though single readings scatter; cell line not stated here;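 further: potency means the concentration at half of the fitted maximal effect; % of control where 0% means no effect; nearly all actives have a fitted effect of over 65% in size; a mitochondrial uncoupler was the plate control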
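Readout is PINK1 immunofluorescence, quantified alongside mitochondrial, cell and nuclear markers by laser-scanning microplate cytometry. Cells from a stable line were exposed to compound titrations (5 concentrations) for 24 hours, with CCCP controls.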
TRPML1 ag – agonists of human TRPML1 channel. TRPML1-expressing cells, Ca2+ dye fluorescence, FDSS; host cell line not named in the record; reference of the full effect not given here. activation, % (concentration not given with the values). 410,000 tested, 0.12% active. AID 624414; in the data active = activation above about 50%; inconclusive = about 30% to 50%; inactive = below about 30%; further: 0% is about no effect; the text of the record puts the active cut at 80%
Target sequence (Q9GZU1 whole entry, looked up): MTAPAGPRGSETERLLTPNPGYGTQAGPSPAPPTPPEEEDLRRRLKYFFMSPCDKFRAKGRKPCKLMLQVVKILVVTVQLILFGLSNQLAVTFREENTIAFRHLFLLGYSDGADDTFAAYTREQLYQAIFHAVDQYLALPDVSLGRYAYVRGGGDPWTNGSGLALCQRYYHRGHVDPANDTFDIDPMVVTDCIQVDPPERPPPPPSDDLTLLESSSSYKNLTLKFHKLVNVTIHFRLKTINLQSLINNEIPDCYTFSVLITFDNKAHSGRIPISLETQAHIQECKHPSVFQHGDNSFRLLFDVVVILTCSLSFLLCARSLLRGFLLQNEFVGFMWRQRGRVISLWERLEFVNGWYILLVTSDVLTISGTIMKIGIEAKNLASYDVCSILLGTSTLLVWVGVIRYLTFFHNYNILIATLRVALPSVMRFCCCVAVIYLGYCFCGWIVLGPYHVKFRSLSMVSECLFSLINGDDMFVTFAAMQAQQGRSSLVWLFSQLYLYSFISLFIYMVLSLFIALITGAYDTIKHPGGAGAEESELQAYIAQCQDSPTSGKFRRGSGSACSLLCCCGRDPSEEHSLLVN
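Cells: TRPML1-DL, 1X Tet inducer, ~16 h at 37 degrees C/5% CO2. Dye: ABD Ca8 no-wash + quencher, 45-90 min RT. Read: 10 s baseline, compound add, 110 s agonist phase; 54-4 EC80 (4uM final), 110 s antagonist phase.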
Six1-Eya2 inh – blocks human Six1 binding to Eya2; 360,000 tested, 0.56% active; AlphaScreen GST-Six1/His-Eya2 binding, biochemical; hits give low values; control for the full effect not named in the record; AID 651725; activity change, % (test concentration not listed); Q15475+O00167; in the data active = activity change below about -65%; inconclusive = about -30% to -65%; inactive = above about -30%; further: on the % scale 0 is the no-effect control and ±100 the full control effect; compound concentration not given in the record
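AlphaScreen luminescence read after one hour at 37 °C in darkness. Pin-transferred compounds met GST-Six1 and His-Eya2 protein (5X stock 250 nM/500 nM) plus glutathione donor and Ni-chelate acceptor beads (5X, 50 ug/mL).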
D2 ag – agonists of human D2 dopamine receptor (beta-arrestin); activation, % (no concentration beside the values); DiscoveRx PathHunter D2 beta-arrestin, luminescence, 90 min; 100% = 57 uM dopamine signal; P14416; AID 624465; 360,000 tested, 0.084% active; in the data active = activation above about 40%; inconclusive = about 15% to 40%; inactive = below about 15%; further: compound concentration not given in the record; the text of the record calls up to 30% inactive
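Agonist mode: compounds alone added to overnight-plated D2 PathHunter cells for 90 min at 37 C, with 57 uM final dopamine (EC100) defining full response. Beta-arrestin recruitment detected by chemiluminescent reagent, read after 1 h at ambient temperature.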
Numbers without * were called inactive; ? = inconclusive; · = no result given; [ ] = dose if it differs, or a comment.

SMILES	CtBP-E1A inh	D2 potentiator	PINK1 expr mod	TRPML1 ag	Six1-Eya2 inh	D2 ag
COc1ccc(N(C(C)C(=O)N2CCC(Cc3ccccc3)CC2)S(C)(=O)=O)cc1 (stereo not drawn)	-4.4	-7.0	0.8%	-0.6	-2.8	-4.9
O=C(CCN1C(=O)C2C3C=CC(C3)C2C1=O)Nc1ccccc1F (stereo not drawn)	-2.3	-1.5	-1.0%	-0.6	2.7	-2.2
COc1cc(/C=N\NC(=O)CN2CCOCC2)ccc1OCC(=O)Nc1ccc(C)c(C)c1	-12.7	19.5	-1.5%	-0.1	-1.2	-1.4
CCOc1ccc(/C=N/NC(=O)C(=O)N2CCCCCC2)c2ccccc12	-6.2	-9.7	1.0%	1.2	-5.7	-0.6
FC(F)(F)c1ccccc1-c1nc(-c2ccncc2)no1	3.5	-1.0	0.5%	0.0	9.2	-1.9
CN(C(=O)c1ccc(NC(=O)Cc2cccc(NC(=O)C3CCCN(C(=O)CCc4ccccc4)C3)c2)cc1)C1CCCC1 (stereo not drawn)	-2.9	-12.3	2.7%	0.0	-22.3	-2.3
COc1ccc(NC(=O)CSc2n[nH]c(=O)n2Cc2ccccc2)cc1Cl	-2.4	-3.7	3.6%	1.2	4.5	-4.6
COc1ccc(C(=O)NC(=S)Nc2cccc3ncccc23)cc1[N+](=O)[O-]	-14.8	-7.4	1.5%	-0.7	-7.4	-4.0
Cc1ccc(N(C(=O)c2ccccn2)C(C(=O)NC2CCCCC2)c2ccncc2)cc1 (stereo not drawn)	7.2	-3.7	-2.1%	0.0	9.8	-1.7
Cn1c(=O)n(Cc2ccccc2)c2ccccc21	0.0	-0.4	5.2%[38.3 µM]	-0.5	5.5	1.1
COc1cc(/C=C/C(=O)Nc2ccc(C(C)=O)cc2)cc(OC)c1OC	5.0	13.2	5.9%	1.5	4.2	3.1
CC(C)c1cc(C(=O)Nc2cccnc2)no1	7.4	-4.3	0.2%[38.3 µM]	-0.6	2.1	1.5
COc1ccc(C(=O)NCC(=O)OCCCOC(=O)CNC(=O)c2ccc(OC)c(OC)c2)cc1OC	4.0	-31.9	0.8%	0.1	-4.3	-7.9
Cc1ccc(N(Cc2cc3ccccc3[nH]c2=O)C(=O)c2cccs2)cc1C	-5.4	3.6	-0.1%	1.6	-0.6	-4.1
N#CC1=C(N)Nc2nc3ccccc3n2C1c1ccc(Cl)cc1 (stereo not drawn)	5.3	-3.4	4.0%	0.5	4.4	1.8

Four of these compounds in another layout:
structure | CtBP-E1A inh | D2 potentiator | PINK1 expr mod | TRPML1 ag | Six1-Eya2 inh | D2 ag
Cc1ccc(N(C(=O)c2ccccn2)C(C(=O)NC2CCCCC2)c2ccncc2)cc1 (stereo not drawn) | 7.2 | -3.7 | -2.1% | 0.0 | 9.8 | -1.7
N#CC1=C(N)Nc2nc3ccccc3n2C1c1ccc(Cl)cc1 (stereo not drawn) | 5.3 | -3.4 | 4.0% | 0.5 | 4.4 | 1.8
FC(F)(F)c1ccccc1-c1nc(-c2ccncc2)no1 | 3.5 | -1.0 | 0.5% | 0.0 | 9.2 | -1.9
CCOc1ccc(/C=N/NC(=O)C(=O)N2CCCCCC2)c2ccccc12 | -6.2 | -9.7 | 1.0% | 1.2 | -5.7 | -0.6

Next section:
SMILES	CtBP-E1A inh	D2 potentiator	PINK1 expr mod	TRPML1 ag	Six1-Eya2 inh	D2 ag
COc1ccccc1OCC(=O)Nc1cc(S(=O)(=O)N2CCCCC2)ccc1N1CCCCC1	-10.5	-25.2	-0.5%	0.3	-11.0	-2.4
COc1ccc(C2/C=C\CN(C(=O)c3ccccc3)[C@H](Cc3ccccc3)C(=O)N2Cc2ccc(F)cc2)cc1 (stereo partly drawn)	·	-5.8	0.0%	-0.5	-4.1	4.5
CCOC(=O)N1CCN(CC(=O)N2c3ccccc3Sc3ccccc32)CC1	-3.3	-3.1	3.7%	0.5	1.6	-2.0
CC(Sc1nnc(C2CC2)n1C1CC1)C(=O)NC1(C#N)CCCCC1 (stereo not drawn)	-3.2	9.2	-3.7%	-0.4	0.4	-0.2
COc1ccc(CN(C2CCCC2)S(=O)(=O)c2ccc(-n3cnnn3)cc2)cc1	-1.1	-9.1	0.8%	-0.4	-1.0	-1.1
Cn1c(=O)c2c(nc(SCc3nn[nH]n3)n2Cc2ccccc2F)n(C)c1=O	?	-8.7	-0.2%	1.0	?	-1.0
CCCCN(CC)CCNS(=O)(=O)c1ccc2c(c1)oc(=O)n2C	-3.6	-20.2	·	0.5	1.6	-0.6
O=C(NCCCn1ccnc1)C(=O)NC1CCCCC1	0.0	-12.6	1.8%	-0.2	2.8	-6.0
CCCn1c(CCNc2nc(-c3ccc(OC)cc3)cs2)nc2ccccc21	-1.7	-13.5	5.1%	-1.4	-4.9	0.0
COc1ccc(OC)c(C2C=C(C34CC5CC(CC(C5)C3)C4)NC(=S)N2)c1 (stereo not drawn)	?	-14.9	2.6%	-0.7	?	-0.8
Cc1nnc(SCC(=O)Nc2nc3ccccc3s2)n(N)c1=O	0.3	-3.1	20.7%	0.5	5.4	-5.0
O=C1CC[C@@H]2CC3(C[C@@H]4CCN1[C@H]24)Nc1ccccc1NC3=NC1CCCCC1 (stereo partly drawn)	0.7	-79.2	1.7%	-0.8	-0.2	-1.6
CCCN(CC1CC1)C(=O)COC(=O)c1ccc(CNS(=O)(=O)c2ccc(F)c(Cl)c2)cc1	9.0	1.8	0.1%	1.7	-5.5	2.3
CC1(C)Cc2[nH]c(=O)c(C#N)cc2CS1	1.0	-66.3	-0.9%	-0.6	3.6	0.7
Cc1cnccc1NC(=O)c1cccs1	5.6	-2.2	-2.0%	-0.5	2.4	0.2
CN(C(=O)COC(=O)c1n[nH]c2ccccc12)C1CCS(=O)(=O)C1 (stereo not drawn)	0.8	-29.5	-0.1%	2.9	1.2	-1.6
CCN1CCN(S(=O)(=O)c2ccc3[nH]c(=O)oc3c2)CC1	7.8	0.4	3.2%	-0.9	-1.7	-7.1
COc1ccc2sc(-c3ccc(N(C)C)cc3)c(-c3cnc(OC)nc3)c2c1	-0.6	0.1	0.3%	1.7	-1.2	0.1
COc1cc(F)ccc1-c1cc(C(=O)NCc2ccc(F)cc2)[nH]n1	3.7	-16.3	-1.3%	-1.0	-5.7	8.1
Cc1nn2c(N)c(-c3ccccc3)cnc2c1-c1ccc(Cl)cc1	-0.2	-5.2	11.3%	-0.4	12.1	-1.4
CC(C)(C)NC(=O)C1c2ccccc2OCC(=O)N1Cc1ccc2c(c1)OCO2 (stereo not drawn)	-2.9	·	1.6%	-0.8	-0.3	·
O=[N+]([O-])c1ccc(C(=S)N2CCN(Cc3ccccc3)CC2)cc1	-12.0	-31.3	4.0%	-0.9	?	-1.1
CCN(CC)S(=O)(=O)c1ccc2oc(SCc3ccc(F)cc3)nc2c1	32.4	-0.4	-0.1%	1.3	12.3	-3.2
COc1cccc(C(=O)OC(C)C(=O)NCC2CCCCC2)c1 (stereo not drawn)	0.1	-1.9	3.1%	0.5	8.4	9.2
CC1(C)Cc2c(cnn2-c2ccccc2)C(NC(=O)CCc2ccc(=O)[nH]n2)C1 (stereo not drawn)	4.5	-22.1	-1.4%	0.7	-0.7	0.1
CCOc1ccc2oc(=O)cc(CN3CCN(Cc4ccccc4)CC3)c2c1	·	-77.2	-0.5%	·	-5.5	1.2
CC(=O)Nc1cccc(-c2ccnc3c2CC(C(=O)Nc2cccc(Oc4ccccc4)c2)O3)c1 (stereo not drawn)	-11.3	-7.9	2.8%	-0.3	-14.0	-0.9
Cc1onc(-c2ccccc2Cl)c1C(=O)NC(=S)NCC(=O)c1ccccc1	·	-8.5	4.1%	-0.4	-1.0	-3.4
CC1CC(C)CN(S(=O)(=O)c2ccc(C(=O)OCC(=O)NCCN3C(=O)CSC3=O)cc2)C1 (stereo not drawn)	3.8	-4.6	0.5%	-0.4	-2.6	-0.7
COc1ccc(-c2nn(-c3ccccc3)cc2C(=O)OCC(=O)c2ccc(C)c([N+](=O)[O-])c2)cc1	·	-8.3	-0.7%	0.7	-7.3	4.8
COCCN1C(=O)C(O)=C(C(=O)c2ccco2)C1c1cccc(Oc2ccccc2)c1 (stereo not drawn)	-3.6	9.3	5.7%[38.3 µM]	-0.5	-13.8	-1.0
O=C(c1ccc2snnc2c1)N1CCOCC1	2.7	-1.1	0.5%[38.3 µM]	0.7	5.3	-2.6
Cc1nc2ccc(NC(=O)COc3ccccc3[N+](=O)[O-])cc2s1	0.8	-2.0	1.2%	-0.9	3.5	-5.1
O=c1c2ccccc2nc(-c2ccc(Cl)cc2)n1C1CCS(=O)(=O)C1 (stereo not drawn)	6.6	-9.8	1.0%	0.1	5.4	-0.7
O=C(NCc1ccco1)c1cccc(C(F)(F)F)c1	2.0	-1.7	0.2%	0.1	-2.1	-5.7
CC(OC(=O)Cc1ccc(Br)cc1)C(=O)NC1CCCCC1C (stereo not drawn)	28.2	16.0	4.3%	-0.8	-16.3	0.8
Cc1ccc(C)c(N(CC(=O)Nc2ccc(-c3nc4ccc(C)cc4s3)cc2)S(C)(=O)=O)c1	8.8	5.2	?	-0.1	-4.4	2.5
CCOc1ccc(C(=O)NC(=S)Nc2cc(C)ccn2)cc1[N+](=O)[O-]	0.4	-7.6	0.9%	0.7	-5.0	-4.6
COC(=O)[C@H](CC(C)C)NC(=O)NCCC1=CCCCC1	-6.6	-4.0	-0.2%	0.1	-1.0	-1.8
COc1cccc(CNC(=O)CCN2C(=O)[C@@H]3Cc4ccccc4CN3C2=O)c1	0.0	-8.8	-0.4%	0.1	-8.6	2.6
O=C(CN1CCCC1)Nc1cc(F)ccc1F	-3.2	-2.8	3.8%	0.2	6.8	-5.8
CCCc1cc(=O)oc2cc(OC(C)C(=O)NC3CC(C)(C)NC(C)(C)C3)ccc12 (stereo not drawn)	·	-3.3	-0.4%	3.2	1.1	0.1
O=C(O)C1CC=CCC1C(=O)Nc1ccc(Oc2ccc(Cl)cc2)cc1 (stereo not drawn)	-5.5	-16.5	2.5%	0.0	-4.4	-2.4
Cc1ccc(CNc2ncnc3c2cnn3-c2ccccc2)cc1	-4.4	3.4	·	1.4	5.0	-4.2
CCOc1[nH]n(-c2ccccc2)c(=O)c1C=Nc1ccc(OC)cc1	·	-7.8	2.8%	-1.0	-20.3	-4.0
Cc1cc(C(O)c2ncc(-c3cccc4ccccc34)[nH]2)ccc1F (stereo not drawn)	-18.3	-17.1	2.2%	-0.4	-8.4	-4.0
COC(=O)NC1CCC(NC(=O)OC)CC1 (stereo not drawn)	1.8	-0.7	-0.5%	0.0	5.5	-2.7
CNC(=O)Cn1ncc2c3ccccc3n(C)c2c1=O	·	-12.9	3.0%	3.0	-0.1	-4.6
CCN(CC(=O)Nc1ccccc1C(F)(F)F)C(=O)CCc1c(C)[nH]c(=O)c(C#N)c1C	-18.8	-3.6	1.0%	1.7	-5.1	0.0
CN1CCN(C(=O)c2ccc(S(=O)(=O)c3ccc(Br)cc3)cc2)CC1	0.9	-7.4	-0.3%	-0.7	-3.5	0.0
